Assay outcomes deposited in PubChem by National Center for Advancing Translational Sciences (NCATS).
TRPV1 potentiator – HTS Assay for Compounds that Act as Potentiators of the Vanilloid Receptor 1 | TRPV1-expressing cells, Fluo-8 calcium influx, capsaicin EC20 potentiation; host cell line not named in the record; control for the full effect not named in the record | potentiation, % at 8.33 µM | hit rate 0.02% among 320,000 | AID 540277, 2011; active means potentiation above 80%; inconclusive means 30% to 80%; inactive means below 30%; note: 0% is about no effect
Target sequence (Q8NER1 whole entry, looked up): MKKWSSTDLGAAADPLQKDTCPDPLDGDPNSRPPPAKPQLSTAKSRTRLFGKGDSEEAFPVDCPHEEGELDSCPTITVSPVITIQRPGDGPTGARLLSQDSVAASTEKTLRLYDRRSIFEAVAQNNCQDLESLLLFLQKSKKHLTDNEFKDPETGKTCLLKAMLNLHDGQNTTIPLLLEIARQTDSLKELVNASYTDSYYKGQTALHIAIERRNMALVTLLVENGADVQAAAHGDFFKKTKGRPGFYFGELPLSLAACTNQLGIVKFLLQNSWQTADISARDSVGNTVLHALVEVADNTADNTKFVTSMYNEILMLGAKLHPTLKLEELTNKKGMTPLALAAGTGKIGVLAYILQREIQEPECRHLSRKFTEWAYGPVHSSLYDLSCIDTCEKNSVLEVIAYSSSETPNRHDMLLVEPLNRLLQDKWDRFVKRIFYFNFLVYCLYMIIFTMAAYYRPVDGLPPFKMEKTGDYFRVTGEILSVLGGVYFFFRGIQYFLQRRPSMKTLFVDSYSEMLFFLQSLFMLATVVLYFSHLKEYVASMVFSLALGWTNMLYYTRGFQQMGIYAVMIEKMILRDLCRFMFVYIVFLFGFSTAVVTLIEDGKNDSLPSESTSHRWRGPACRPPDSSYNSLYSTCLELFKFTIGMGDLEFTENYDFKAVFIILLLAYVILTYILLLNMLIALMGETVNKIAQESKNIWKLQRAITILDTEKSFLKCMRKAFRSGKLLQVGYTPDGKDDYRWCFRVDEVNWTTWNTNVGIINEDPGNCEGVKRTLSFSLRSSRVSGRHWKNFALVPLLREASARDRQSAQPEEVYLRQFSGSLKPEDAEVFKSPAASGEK
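TRPV1-expressing cells were cultured overnight at 35.5C and loaded with Fluo-8 calcium dye for 40 to 90 min at room temperature. After a 10 s baseline, compound was added and calcium influx was read kinetically for 3 min (ex 480/em 520 nm).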
gsp antag – qHTS for Antagonists of gsp, the Etiologic Mutation Responsible for Fibrous Dysplasia/McCune-Albright Syndrome: qHTS | hit rate 0.4% among 340,000 | gsp-mutant cells, cAMP HTRF, 30 min; control for the full effect not named in the record | Potency, µM (top dose mostly 76.9 µM), for the others: at the top dose activity change, negative = inhibition, most hits filed as inhibitors; active = falling curve of any shape with a large fitted effect; inconclusive = falling curve, mostly with a smaller effect; inactive = flat or rising curve; cell line not stated here;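 note: intracellular cAMP measured with PDE inhibitor Ro 20-1724 present during compound exposure; potency is the fitted concentration of half-maximal effect; % is set by controls: 0 for no effect and ±100 for the full control effect; nearly all actives have a fitted effect of over 65% in size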
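Cells, 2000/well, grown 16–24 h in DMEM 10% FBS with 0.5 mg/ml G418, then compounds plus […] (300 uM addition stock), 30 min at 37C. cAMP read by HTRF (cAMP-d2 and anti-cAMP antibody-K in lysis buffer) after 30 min RT.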
Sfp inh – qHTS Assay for Inhibitors of Bacillus subtilis Sfp phosphopantetheinyl transferase (PPTase); 4'-phosphopantetheinyl transferase ffp (Bacillus subtilis), Q9F4F7; Biochemical Sfp PPTase activity, qHTS; Potency, µM, without a hit: max response, negative = inhibition, most hits filed as inhibitors; hit rate 3.5% among 310,000; AID 1490, 2009; active = well fitted inhibition curve with a large enough effect; inconclusive = small, poorly fitted or top-dose-only effect, or another doubt; inactive = no such curve, though single readings can be large or run the other way;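 note: the enzyme is Sfp with the accession as filed and its product quenches rhodamine fluorescence; potency is the fitted concentration of half-maximal effect; 0% = enzyme reaction without inhibitor and -100% = no enzyme wells; top concentration of the series not given in the record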
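After 15 min at room temperature with compound, 15 nM Sfp received 5 uM rhodamine-CoA plus 12.5 uM BHQ-2-ybbR (50 mM Hepes pH 7.6, 10 mM MgCl2). Rate came from the fluorescence difference over 30 min, ex 525/em 598 nm.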
ClpP mod – qHTS Assay for Activators of ClpP | purified B. subtilis ClpP, FRET peptide cleavage, 20 min | Potency, µM (top dose mostly 57.5 µM), inactives show at the top dose activity change, negative = active | hit rate 1.9% among 340,000 | AID 651965, 2013; active = well fitted falling curve with a large enough effect; inconclusive = small, poorly fitted or top-dose-only effect; inactive = no such curve, though single readings can be large or run the other way; note: potency is the fitted concentration of half-maximal effect; the source files actives as falling curves though it sought activators and does not explain the sign; nearly all actives have a fitted effect of over 65% in size; many hits overshoot -100%
Target sequence (P80244 whole entry, looked up): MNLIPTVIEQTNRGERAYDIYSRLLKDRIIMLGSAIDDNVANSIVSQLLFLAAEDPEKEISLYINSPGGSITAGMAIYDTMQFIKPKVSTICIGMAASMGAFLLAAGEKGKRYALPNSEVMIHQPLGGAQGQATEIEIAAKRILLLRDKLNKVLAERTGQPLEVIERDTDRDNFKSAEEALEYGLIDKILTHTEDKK
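FRET quenching reversal measured ClpP activation: 10 microg/mL B. subtilis ClpP at pH 8 with the FRET-FV decapeptide, read at 430 nm after 320 nm excitation. The 20-min minus 0-min signal was scaled between DMSO/no-enzyme wells and ADEP (5.8 microM final).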
TRPML1 inh – qHTS for Inhibitors of the Human Mucolipin Transient Receptor Potential 1 (TRPML1); Mucolipin-1 (Homo sapiens), Q9GZU1; TRPML1-inducible cells, Ca2+ dye fluorescence, FDSS; stronger effect = lower value; inhibition of EC80 agonist-evoked calcium signal; activity change, negative = inhibition, % (concentration not given with the values); hit rate 0.02% among 390,000; in the data active means activity change below about -50%; inconclusive means about -30% to -50%; inactive means above about -30%;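 note: stimulus is agonist 54-4 at its EC80 concentration; % is set by controls: 0 for no effect and ±100 for the full control effect; compound concentration not given in the record; the text of the record puts the active cut at -80%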
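Tet-induced TRPML1-DL cells loaded with Ca8 no-wash calcium dye were read kinetically on FDSS. Compound addition was followed by EC80 agonist 54-4 (4 uM final); inhibition was read over 110 s.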
gsp ag – qHTS for Agonist of gsp, the Etiologic Mutation Responsible for Fibrous Dysplasia/McCune-Albright Syndrome: qHTS; gsp mutant cells, cAMP HTRF, 30 min; control for the full effect not named in the record; Potency, µM (doses to about 76.9 µM), for inactives: at the highest dose activation (cAMP increase), usual class: activators; hit rate 0.13% among 340,000; AID 624287, 2012; active = well fitted activation curve with a large enough effect; inconclusive = small, poorly fitted or top-dose-only effect, or another doubt; inactive = no such curve, though single readings can be large or run the other way; cell line not stated here;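 note: phosphodiesterase inhibitor Ro 20-1724 added with compounds to block cAMP breakdown; potency is the fitted concentration of half-maximal effect; nearly all actives have a fitted effect of over 60% in size; about a fifth of the inactives were tested at one dose only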
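Cells in DMEM/10% FBS with G418 were pretreated with compounds in DMSO plus […] (300 uM stock) for 30 min at 37C. cAMP was measured by HTRF (cAMP-d2 plus anti-cAMP antibody-K) after 30 min at room temperature.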
Menin-MLL FL inh – qHTS Assay for Inhibitors Targeting the Menin-MLL Interaction in MLL Related Leukemias: Competition With Fluorescein Labeled MLL-derived Peptide. Fluorescence polarization, fluorescein-MLL peptide displacement from menin. 290,000 tested, under 10 active. FP activity change, % at 61.4 µM; inconclusive = falling polarisation curve, or a change in total fluorescence; inactive = total fluorescence flat and polarisation flat or rising; no compound was filed as active; the % refers to the polarisation; negative = inhibition;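 note: % of control where 0% means no effect; inhibitors lower the polarisation; unlabelled MLL peptide was the positive control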
* = called active by the depositor; ? = inconclusive; · = no result given; & = joins results of further samples; [ ] = remark or other dose. This is a random part of the collection; 4.9% or so of the library scored in one or more.

Values run as follows: gsp ag	TRPML1 inh	Menin-MLL FL inh	TRPV1 potentiator	Sfp inh	ClpP mod	gsp antag
> Cc1cc(C(=O)Nc2sc(C)c(-c3ccc(F)cc3)c2C(N)=O)no1
  -15%	44	0.0	1	-1%	13µM*	5%
> Cc1c(C(=O)N/N=C/c2cccs2)nc2ccccn12
  ?	-5	5.7	18	2%	-2.7%	24%
> Nc1cccc2c1nnn2C1OC(CO)C(O)C(O)C1O (stereo not given)
  ·	·	4.1	4	14%	·	·
> Cc1c(NC(=O)C2CCCN2S(=O)(=O)c2ccc(Cl)cc2)c(=O)n(-c2ccccc2)n1C (stereo not given)
  16%	-12	2.0	22	2%	-1.5%	-1%
> O=Cc1cc(N=Nc2ccccc2Cl)ccc1O
  -17%	1	-3.1	22	-14%	-0.8%	?
> CCN(CC)C(=O)c1sc2nc(-c3ccccc3)ccc2c1N
  -4%[15.4 µM]	-8	-0.7	-12	20µM*	·	5%
> CCOC(=O)c1c(NC(=O)C2CCCCC2)sc2c1CCN(CC)C2
  -6%	20	0.3	-6	3%	-2.0%	-7%
> COC(=O)c1cccc(COC(=O)CNC(=O)c2ccco2)c1
  23%	-1	2.0	16	17%	0.2%	-4%
> Cc1ccc(NC(=O)Cn2cc(C(F)(F)F)cc(Cl)c2=O)cc1Cl
  2%[15.4 µM]	2	-7.9	3	7%	·	6%
> O=C(c1ccco1)N1CCN(C(=O)c2ccco2)C1=S
  1%	4	·	·	·	0.7%	2%
> COc1cnc(-c2ccccc2)nc1Oc1cccc(C)c1
  -36%[inhibitor]	-8	3.7	-7	-4%	3.9%	0%[15.4 µM]
> Cc1ccc(SCC(=O)OCC(=O)NC2CCCCCCC2)cc1
  11%	3	·	-9	·	-1.3%	-2%
> COc1cccc(C(=O)NCCN2CCN(c3ccc(Cl)cc3)CC2)c1
  ·	-24	0.2	-17	·	-3.0%	-5%
> CC(=O)Nc1ccc(NC(=O)c2cc(-c3ccc(C)cc3O)n[nH]2)cc1
  22%	2	-1.4	25	11%	-1.3%	12%
> CCc1c(C(=O)NC2CCCCC2)[nH]c(C)c1C(C)=O
  -3%	1	5.3	3	-8%	0.4%	4%
> CSc1nc(N)n2nc(-c3ccccc3)cc2n1
  0%	9	2.0	-18	9%	·	-4%
> O=C(c1ccc(Cl)c(S(=O)(=O)N2CCCC2)c1)N1CCN(c2ccccn2)CC1
  -11%	16	-2.8	-10	-2%	-0.7%	-7%
> CC1CC(=O)N(CC(=O)Nc2cccc(Cl)c2)c2ccccc2S1(=O)=O (stereo not given)
  18%	31	-1.6	-2	12%	0.4%	-5%
> CNC(=O)C1=C(C)NC(=S)NC1c1cc2c(cc1OC)CCCC2 (stereo not given)
  2%	20	0.9	-5	3%	-0.6%	11%
> COc1cc(-c2nc(-c3ccccc3)c(-c3cccs3)[nH]2)cc(OC)c1OC
  ?	15	2.3	10	8%	32µM*	-3%
> CC(=O)c1ccc(NS(=O)(=O)c2ccc(-c3cnc(C4CC4)o3)cc2)cc1
  27%	-8&1	·	-12	11%	-0.6%&-4.7%	-1%
> COc1ccccc1C(=O)Nc1ccccc1N1CCCCC1
  14%	37	0.9	-52	-6%	·	-9%
> CC1CC(C)CN(S(=O)(=O)c2ccccc2[N+](=O)[O-])C1 (stereo not given)
  -1%	-4	0.3	-9	12%	0.5%	-39%
> Cc1ccc(OCC(=O)Nc2ccc3c(c2)nc(CCN2CCCC2)n3C)cc1
  -4%	-5	·	·	·	-21%	·
> CS(=O)(=O)n1nc(-c2ccccc2)nc1NCc1ccco1
  16%	-14	-0.8	-3	?	-1.8%	1%
> Cc1cc(C)c(C)c(OC(=O)c2sc(Cl)nc2C)c1
  1%	1	4.3	5	-11%	-3.6%	-4%
> O=C(Nc1ccc(F)c(F)c1)c1cccnc1
  -22%	1	3.8	-3	-6%	-2.3%	0%[15.4 µM]
> CC(C)Cn1cc(C(=O)N2CCN(c3ccccn3)CC2)c2c3ccccc3n(C)c2c1=O
  19%	3	0.7	-6	-2%	16µM*	17%
> CCSc1nnc(-c2ccc(S(=O)(=O)N3CCOCC3)cc2)n1C
  -17%	-19	-11	-2	6%	·	8%
> Cc1ccc(C(=O)Nc2cccc(NC(=O)CN3CCCCC3)c2)cc1
  -20%[15.4 µM]	-17	-0.6	-4	5%	-1.1%	5%
> C/C=C/c1ccc(OCCOc2cccc3cccnc23)c(OC)c1
  3%	1	3.9	13	-3%	-3.6%	-25%
> CCCCN(C)S(=O)(=O)c1ccc(C(=O)Nc2nnc(CSC)o2)cc1
  19%	-5	-1.6	19	15%	-0.3%	-18%
> CN(C)S(=O)(=O)c1ccc(Cl)c(NC(=O)COC(=O)C2CCCO2)c1 (stereo not given)
  -8%	-5	-0.6	7	14%	-0.7%	4%
> Cc1cc(=O)oc2cc(O)cc(O)c12
  ·	-8	·	·	·	3.9%	3%
> COc1ccc(NC(=O)c2ccc(OC(=S)N(C)c3ccc(OC)cc3)cc2)cc1
  34%	-6	3.9	-9	13%	7.6%	1%
> O=C(Nc1cccc(-c2nnc(-c3ccco3)o2)c1)c1ccccc1
  -1%	-14	0.7	2	21%	·	-16%
> CCCCOC(=O)c1ccc(NC(=O)CSc2nnnn2C)cc1
  8%[15.4 µM]	-1	-2.2	2	17%	·	4%
> CC(=O)c1cccc(NC(=S)NC(=O)c2ccc(C)cc2Cl)c1
  -7%	-3	6.9	-11	-12%	-0.8%	5%
> COc1ccc(NC(=O)CCCCCN2C(=O)CCC2=O)cc1Cl
  24%	17	-0.2	1	6%	0.5%	2%
> CN(CC(=O)Nc1cccc(F)c1)C(=O)c1cc([N+](=O)[O-])ccc1N1CCOCC1
  0%	-2	·	-5	·	1.0%	11%
> CC(C)Oc1ccc(C(=O)N2CCCc3ccccc32)cc1
  -2%	37	0.7	-1	-8%	3.1%	-24%
> COc1cc(C(CCN2CCCCC2)c2c(OC)cc(OC)c3c(C)cc(=O)oc23)cc(OC)c1OC (stereo not given)
  ·	3	-0.8	-18	17%	-5.8%	6%
> C/C(=N\NC(=O)c1cccc(Br)c1)c1cccc(NC(=O)c2ccc(C)o2)c1
  26%	3	0.1	-2	14%	1.7%	-7%
> O=C(O)CCCC(=O)N(Cc1ccccc1)Cc1ccccc1
  -3%	-7	0.0	-17	-3%	1.0%	-6%
> Oc1ccc(Br)cc1CNc1ccccn1
  24%	·	3.0	2	13%	-0.8%	-2%
> CCN(Cc1nc(-c2cccc(C)c2)no1)C(=O)c1ccc2c(c1)OCO2
  6%[15.4 µM]	18	-20	0	3%	8.9µM*	-22%
> O=c1[nH]c(=S)[nH]nc1Cc1ccccc1
  -12%	-6	-5.1	-25	2%	-1.4%	-4%
> C#CCN(C[C@H]1[C@H](OC(=O)NC2CC2)[C@H](OC(=O)NC2CC2)C[C@@H](C(=O)OC)[C@H]1C(=O)OC)S(=O)(=O)c1ccc(C)cc1
  -18%	3	·	·	·	-1.5%	·
> CCC(c1nnnn1C1CCCC1)N1CCC(C(N)=O)CC1 (stereo not given)
  -9%[15.4 µM]	-22	2.2	1	16%	·	11%
> Cc1c(NS(=O)(=O)c2cccc(C(=O)NCc3ccccc3Cl)c2)c(=O)n(-c2ccccc2)n1C
  -6%[15.4 µM]	-14	·	?	·	1.1%	-12%
> Cc1cc(C)c(O)c(N)c1
  ·	·	7.6	5	20µM*	·	·
> CCN(C(=O)COC(=O)CNC(=O)C12CC3CC(CC(C3)C1)C2)C1CCS(=O)(=O)C1 (stereo not given)
  -33%[inhibitor]	9	-0.2	16	9%	0.9%	4%
> C=CCNCCCOc1ccc(Cl)cc1C(C)(C)C
  -1%	-2	0.0	6	?	-21%	21%
> COc1ccc(OC)c(S(=O)(=O)NC2CC(=O)N(c3cccc(F)c3)C2)c1 (stereo not given)
  -1%[15.4 µM]	7	·	-5	·	·	-6%
> COCCn1c(CCc2ccccc2)n[nH]c1=S
  5%[15.4 µM]	19	0.8	18	12%	-3.0%	-1%
> CN(C)C1C(=O)c2ccccc2C1=O
  -16%	-3	3.5	6	4%	1.4%	6%
> NC(=O)c1ccccc1NC(=O)c1ccccc1F
  12%	-9	-0.5	1	-1%	-1.5%	-2%
> O=C(Nc1ncc([N+](=O)[O-])s1)c1ccccc1Br
  8%	·	11	1	11%	-2.0%	-30%
> Cc1cccc2nc(CSc3nc4ccccc4o3)cn12
  ?	0	6.1	0	-32%	2.1%	3%
> O=C(O)c1c[nH]c(=O)c2ccccc12
  -13%[15.4 µM]	-4	6.0	1	7%	·	-2%

Later entries
Values run as follows: gsp ag	TRPML1 inh	Menin-MLL FL inh	TRPV1 potentiator	Sfp inh	ClpP mod	gsp antag
> CCOC(=O)CNC(=O)CSc1nc(-c2ccc(OC)cc2)ns1
  3%[15.4 µM]	5	2.8	?	40µM*	-4.3%	2%
> CCOCCc1nnc(NC(=O)Cc2ccc(Br)cc2)s1
  -60%[inhibitor]	-15	2.3	4	16%	0.7%	6%
> Cc1cccc(CSC2=CS(=O)(=O)c3ccccc3N2)c1
  -25%	-10	2.4	-7	7%	1.4%	-19%
> NC(=O)C1=C[C@@H](c2coc3ccccc3c2=O)C[C@@H](OCCCCO)O1
  -15%	-12	-1.3	2	14%	-0.5%	-2%
> O=C(CNC(=S)N(CCCN1CCOCC1)Cc1cccs1)NCc1ccc(Cl)cc1
  -10%	-7	·	-2	10%	1.2%	-1%
> COc1cc(C(=O)Nc2cccc(-n3cnnn3)c2)cc(Cl)c1OC
  27%	1	1.9	3	14%	-1.4%	-12%
